eIF4H inh – inhibitors of RNA binding by human eIF4H. Q15056. eIF4H fluorescence polarization binding assay. inhibition, % at 35 µM. 290,000 tested, 0.94% active;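 active = 50% or more with normal probe brightness, or confirmed in later tests; inconclusive = above 50% with abnormal brightness, or retests that disagree; inactive = below 50% or failed in later tests; about a fifth of its hits are not listed in these tables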;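 also: calls also rest on retests at 20 µM and on dose response follow-up; 0% = protein and probe with vehicle and 100% = probe without protein; strong numbers were not always called active; many hits fall short of the cut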
UUG fidelity – yeast start codon fidelity modulation. AID 602363. 350,000 tested, 0.13% active. activity score, % at 18.7 µM. S. cerevisiae UUG-firefly luciferase reporter, luminescence/redox ratio;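 active = replicate mean at a twofold rise or more, about +100% in these data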;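 also: firefly luciferase made from a UUG start codon reports start codon fidelity; reporter light over untreated wells divided by growth signal over untreated wells; some hits fall short of that in this replicate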
CSC inhib – blocks cancer stem cells; cancer stem cell-like cells viability, luminescence; inhibition, % at 7.5 µM; 300,000 tested, 1.1% active;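 active = mean at 75% or more and at least half the replicates too; inconclusive = mean and replicates disagree; tested in HMLE shEcad cells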;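 also: 0% = median of negative and 100% = median of positive control wells; the first replicate is given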
PABP polyA inh – PABP-poly(A) binding inhibition | inhibition, % at 35 µM | PABP-poly(A) RNA binding, fluorescence polarization | P11940 | 290,000 tested, 1% active | AID 2014;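 active = 50% or more with normal probe brightness, or confirmed in later tests; inconclusive = above 50% with abnormal brightness, or retests that disagree; inactive = below 50% or failed in later tests; about a fifth of its hits are not listed in these tables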;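 also: calls also rest on retests at 20 µM and on dose response follow-up; controls were probe without protein and protein plus probe with vehicle; some compounds called inactive have numbers as strong as hits; many hits fall short of the cut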
Target sequence (P11940 whole entry, looked up): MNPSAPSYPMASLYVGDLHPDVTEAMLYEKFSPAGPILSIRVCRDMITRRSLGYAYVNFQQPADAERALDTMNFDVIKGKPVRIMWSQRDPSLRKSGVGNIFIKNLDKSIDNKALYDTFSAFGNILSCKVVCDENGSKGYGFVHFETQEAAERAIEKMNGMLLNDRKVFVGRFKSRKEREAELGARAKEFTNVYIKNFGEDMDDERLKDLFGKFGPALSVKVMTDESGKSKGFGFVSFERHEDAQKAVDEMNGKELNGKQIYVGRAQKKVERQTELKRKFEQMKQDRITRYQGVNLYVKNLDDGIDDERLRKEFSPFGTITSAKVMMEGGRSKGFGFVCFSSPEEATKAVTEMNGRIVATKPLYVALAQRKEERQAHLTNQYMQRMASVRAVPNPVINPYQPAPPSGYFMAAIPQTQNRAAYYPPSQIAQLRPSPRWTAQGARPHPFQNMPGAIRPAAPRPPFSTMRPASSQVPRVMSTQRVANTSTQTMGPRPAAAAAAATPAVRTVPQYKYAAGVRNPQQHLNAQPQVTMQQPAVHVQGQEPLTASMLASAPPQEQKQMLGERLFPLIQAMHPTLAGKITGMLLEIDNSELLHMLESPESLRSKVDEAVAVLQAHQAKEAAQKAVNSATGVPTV
HIV Env fusion – blocks HIV Env-driven cell-cell fusion; 360,000 tested, 1.1% active; inhibition, % at 12.3 µM; HeLa-JRFL Env/CEM21 cell fusion, luciferase; AID 651610;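 active = mean replicate inhibition score of at least 50 and every replicate individually at or above 50; inconclusive = only one of the two criteria met; inactive = mean below 50 and not all replicates reaching 50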;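 also: 0% = plate neutral controls and 100% = maraviroc near 300 nM; one replicate is shown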
Rce1 inh – inhibitors of yeast Ras-converting enzyme; AID 2563; 290,000 tested, 0.27% active; Q03530; calls only; yeast membranes, quenched prenylated peptide cleavage fluorescence;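 active = fall in fluorescence gain of 50% or more versus controls, with final raw signal at or below 3038400; inconclusive = same 50% fall but final raw signal above 3038400; inactive = fall in fluorescence gain under 50%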;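 also: plate controls were neutral control wells for no effect and wells lacking membranes for full effect; tested at 10 µM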
Target sequence (Q03530 whole entry, looked up): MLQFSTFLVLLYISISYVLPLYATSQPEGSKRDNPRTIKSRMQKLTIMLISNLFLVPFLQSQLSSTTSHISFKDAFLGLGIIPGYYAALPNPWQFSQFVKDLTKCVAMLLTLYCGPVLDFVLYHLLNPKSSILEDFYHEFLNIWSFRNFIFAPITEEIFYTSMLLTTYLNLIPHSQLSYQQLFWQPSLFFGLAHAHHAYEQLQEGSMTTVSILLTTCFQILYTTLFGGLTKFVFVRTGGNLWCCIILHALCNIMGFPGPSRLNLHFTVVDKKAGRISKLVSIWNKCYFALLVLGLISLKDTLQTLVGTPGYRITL
MT1-MMP act inh – inhibitors of human MT1-MMP activation; HT1080 RFP-PRO-GFP cells, GFP/RFP ratio fluorescence, overnight; percent of plate control window, DMSO zero; GFP/RFP ratio change, % at 20 µM; P50281; 360,000 tested, 0.061% active;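 active = GFP/RFP ratio change of at least 30% with cell ATP level not reduced by more than half and red fluorescence within 50% of control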; also: strong numbers were not always called active
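Material: RFP-PRO-GFP reporter HT1080 cells. Dosing: single-point 20 µM compound, 1% DMSO. Controls: DMSO and RFP-L50D-GFP cell wells. Timing: cells overnight before dosing, compound overnight, 37 °C, 5% CO2. Measure: GFP/RFP fluorescence ratio.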
eIF4H inh retest – also measured in eIF4H inh; calls as there; inhibition, %; compound at 20 µM; confirmation average;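 mean of two retest wells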
PABP polyA inh retest – further read-out of PABP polyA inh, marked with its call; inhibition, %; compound at 20 µM; confirmation repeats;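 mean of two retest wells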
MT1-MMP act inh RFP – further read-out of MT1-MMP act inh, marked with its call; RFP signal change, %; measured here: RFP expression control read;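 0 = vehicle wells; hits needed this value within 50% of zero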
* marks the source's active call; other numbers are inactive results; i = inactive; ? = inconclusive; nt = not tested or not shown.

SMILES | eIF4H inh | UUG fidelity | CSC inhib | PABP polyA inh | HIV Env fusion | Rce1 inh | MT1-MMP act inh | MT1-MMP act inh RFP | others
COc1ccc(-c2nc(-c3ccc(Br)cc3)no2)c(OC)c1 | -8.7 | -31.4 | -30.4 | -11.3 | -282.6 | i | -2.8 | 2.9
Cn1ccnc1SCC(=O)c1ccc(O)cc1 | -10.2 | -28.3 | -0.9 | 9.0 | -9.5 | i | 0.3 | 4.0
Cc1ccc(S(=O)(=O)N2CCOCC2)cc1NC(=O)CN1CCN(C)CC1 | nt | -7.4 | -13.4 | nt | nt | nt | -0.5 | 5.3
CCCC(=O)N(c1ccc2oc(C)c(C(C)=O)c2c1)S(=O)(=O)c1ccc(C)c([N+](=O)[O-])c1 | 11.9 | nt | 7.3 | ? | -6.8 | i | -2.4 | -12.8
CC1=C(C(=O)Nc2ccc(C)cc2C)C(c2ccc(C)o2)NC(=S)N1 (centres undefined) | -3.6 | nt | -2.3 | 65.7 | 23.6 | i | 4.7 | 4.3 | eIF4H inh retest=-4.3;PABP polyA inh retest=-1.2
O=C(NCC1CCCCC1)c1cccnc1Cl | -4.8 | -5.5 | nt | 4.9 | -5.8 | i | -0.5 | 3.2
CCCC(=O)Nc1ccc2nn(-c3ccc(OC)cc3)nc2c1 | -15.7 | 8.9 | 8.4 | 6.5 | -69.5 | i | 2.9 | -6.8
CCOP(=O)(OCC)/C(C#N)=C/c1cc(OC)ccc1OC | 0.8 | -12.9 | 1.9 | 5.7 | -1.9 | i | -1.4 | 2.2
Oc1cccc(-c2nnc(-c3cccc(O)c3)nn2)c1 | nt | -69.0 | nt | nt | -116.1 | nt | 7.4 | 3.8
O=C(CSc1ccccc1)Nc1ccc2c(c1)C(=O)NC2=O | 2.6 | -12.3 | -13.4 | 9.4 | -3.2 | i | 0.6 | 3.5
OC(c1ccc(F)c(F)c1)c1nc(-c2cccc3cccnc23)cs1 (centres undefined) | nt | -18.7 | nt | nt | 7.5 | nt | 2.2 | 1.8
CC(C)C(=O)NC(=S)Nc1ccc(S(=O)(=O)Nc2nccs2)cc1 | -8.1 | nt | 3.8 | -12.4 | 5.8 | i | -2.4 | 3.1

Brought forward from above: 4 compounds; new compounds follow.
SMILES | eIF4H inh | UUG fidelity | CSC inhib | PABP polyA inh | HIV Env fusion | Rce1 inh | MT1-MMP act inh | MT1-MMP act inh RFP | others
Oc1cccc(-c2nnc(-c3cccc(O)c3)nn2)c1 | nt | -69.0 | nt | nt | -116.1 | nt | 7.4 | 3.8
O=C(CSc1ccccc1)Nc1ccc2c(c1)C(=O)NC2=O | 2.6 | -12.3 | -13.4 | 9.4 | -3.2 | i | 0.6 | 3.5
OC(c1ccc(F)c(F)c1)c1nc(-c2cccc3cccnc23)cs1 (centres undefined) | nt | -18.7 | nt | nt | 7.5 | nt | 2.2 | 1.8
CC(C)C(=O)NC(=S)Nc1ccc(S(=O)(=O)Nc2nccs2)cc1 | -8.1 | nt | 3.8 | -12.4 | 5.8 | i | -2.4 | 3.1
O=C(CN1CCN(c2ccccn2)CC1)Nc1cccc(Br)c1 | 3.9 | -17.3 | 3.5 | 54.8 | 5.9 | i | -1.1 | -2.6 | eIF4H inh retest=-0.2;PABP polyA inh retest=9.5
CC(C)[C@H](NC(=O)c1ccccc1F)C(=O)Nc1ccc(F)c(F)c1 | -12.0 | -20.0 | 8.1 | 6.7 | 15.6 | i | -1.4 | 0.6
COc1ccc(CCN(C)C/C=C/c2ccccc2[N+](=O)[O-])cc1OC | 10.2 | 9.6 | -15.4 | -1.5 | 11.1 | i | -3.2 | 2.6
COC(=O)[C@]1(Cc2ccccc2)N[C@H](c2ccc(-c3ccc(F)cc3)cc2)[C@@H]2C(=O)N(C)C(=O)[C@@H]21 | nt | 24.0 | 21.9 | nt | -37.8 | i | 1.6 | -5.4
CCN(CC)c1ccc(C(=O)O)cc1 | -12.8 | nt | 6.4 | 5.9 | -2.3 | i | -0.8 | 4.5
N#Cc1ccccc1OCCOCCNC1CCCC1 | -4.7 | nt | -1.9 | 2.3 | 11.7 | nt | 2.6 | 6.0
CCOc1ccc(C(=O)NCC(=O)N2CCC(C)CC2)cc1OCC | -0.7 | -7.5 | -12.9 | 10.8 | 10.4 | i | 0.0 | 1.1
COC(=O)c1[nH]c2ccc(F)cc2c1NC(=O)CCN1CC(C)OC(C)C1 (centres undefined) | 0.0 | -10.1 | -15.2 | 3.2 | 8.8 | i | -2.8 | 3.4
COC(=O)c1ccccc1NC(=O)CN1CCCCCC1 | 0.7 | -8.5 | nt | -6.2 | -2.4 | i | 1.5 | 3.0
O=C(Nc1ccc(Cl)c(Cl)c1)Nc1ccccc1NS(=O)(=O)c1cccs1 | 9.7 | nt | 99.0* | 1.3 | -6.0 | i | -3.0 | -1.6
CC(Oc1cccc(F)c1)c1ccnc2nc(/N=C/N(C)C)nn12 (centres undefined) | -8.9 | nt | -0.9 | -5.5 | -18.9 | i | -0.5 | 3.9
COc1ccc(/C=C/C(=O)Nc2ccc(S(=O)(=O)Nc3cc(C)nc(C)n3)cc2)cc1OC | -6.9 | -10.1 | 1.9 | -0.9 | -9.7 | i | 5.3 | 6.9
CC1=NN(c2nc(-c3ccc(C)cc3)cs2)C(=O)C1N=Nc1ccc2ccccc2c1 (centres undefined) | -5.9 | nt | -2.3 | -0.8 | nt | i | 1.0 | 5.1
COc1ccccc1CNC(=O)C1CCC(CNc2c(N3CCOCC3)c(=O)c2=O)CC1 (centres undefined) | 11.4 | 2.9 | -2.3 | -8.5 | -10.3 | i | -0.2 | 2.5
COC(=O)CC1SC(=O)NC1=Nc1ccc(OC)cc1 (centres undefined) | 6.0 | -8.7 | -5.3 | 17.8 | nt | i | -0.8 | 2.1
O=C1CS/C(=N/N=C\c2ccn[nH]2)N1 | 9.0 | -16.4 | -9.3 | 15.2 | -10.4 | i | 0.7 | 2.0
CC(=O)NCCCNC(=S)NCCCN(Cc1ccc(Cl)cc1)c1ccc(Br)cn1 | nt | -8.4 | nt | nt | 12.7 | nt | 4.6 | -5.4
COc1ccccc1-c1nc(C#N)c(N2CCC(Cc3ccccc3)CC2)o1 | 8.9 | -11.1 | nt | -2.9 | nt | i | 0.6 | -2.9
COC(=O)CNC(=O)c1c(C)cc(=O)oc1C | -18.6 | -9.2 | nt | -9.7 | -19.7 | i | 5.3 | 0.7
CCOc1ccccc1CN1CCC(N2CCOCC2)CC1 | 12.8 | -12.3 | nt | 7.1 | -8.1 | i | -0.2 | 1.3
COc1cccc(OC)c1CC1SC(=O)NC1=O (centres undefined) | 11.1 | nt | -6.6 | -1.5 | 2.6 | i | 1.6 | 0.4
O=C(CCc1nc(-c2ccccc2)no1)Nc1cccnc1 | -0.9 | -0.9 | -5.4 | 4.3 | 11.6 | nt | -3.1 | -3.2
Cc1ccc(S(=O)(=O)Nc2ccccc2C(=O)NCc2cccnc2)cc1 | 1.4 | nt | -12.4 | 3.2 | 10.8 | i | 1.4 | 3.8
NC(=O)c1nsc(C(=O)N(Cc2ccc(F)cc2)C(C(=O)NC2CCCC2)c2ccco2)c1N (centres undefined) | 7.9 | -9.2 | 4.6 | 1.5 | 4.5 | i | -2.4 | 0.3
COc1ccc2c(c1)C(SCC(=O)NCc1ccccc1)CC(C)(C)O2 (centres undefined) | 9.6 | -9.0 | -20.0 | -2.4 | 1.3 | i | nt | nt
O=C(CC1Sc2ccccc2NC1=O)c1ccc(Br)cc1 (centres undefined) | -5.2 | -6.9 | -11.4 | 8.9 | nt | i | -2.1 | 4.1
CCCNS(=O)(=O)c1ccc(NC(=O)c2ccccn2)cc1 | 5.8 | -25.8 | -3.3 | -0.4 | nt | nt | 4.5 | -2.8
CCOC(=O)c1ccc(NC(=O)Cn2c(-c3nonc3N)nc3ccccc32)cc1 | -9.0 | nt | -3.5 | 1.5 | 2.8 | i | 0.1 | 2.9
CCOC(=O)CCc1nn(C)c(=O)c2ccccc12 | -5.8 | nt | 6.1 | 12.7 | 25.5 | i | -1.4 | -2.3
COc1ccc(NC(=S)N2CCN(S(=O)(=O)c3ccc(F)cc3)CC2)cc1 | 4.3 | -11.5 | -20.6 | -6.9 | -8.4 | i | 1.6 | 6.9
O=C1c2ccccc2C(Nc2cccnc2)N1Cc1ccccc1 (centres undefined) | -1.5 | -22.1 | -1.3 | 4.6 | nt | i | 0.2 | 2.7
CCCC(C)NC(=O)CSCc1ccc(OC)cc1 (centres undefined) | -7.3 | 4.9 | -22.4 | 2.9 | -0.9 | nt | -9.1 | -2.2
Cc1ccccc1NC(=O)NCCCN1CCN(C2CCCCC2)CC1 | -1.8 | -13.2 | -2.1 | -5.6 | nt | i | 5.8 | 7.9
CCn1c(SCC(=O)Nc2sc(C)c(C)c2C#N)nnc1C(C)C | 1.7 | -19.2 | -0.5 | 5.3 | nt | i | -11.0 | -3.2
CCO[C@H]1OC(C(=O)N2CCN(Cc3ccccc3)CC2)=C[C@@H](c2coc3ccccc3c2=O)[C@@H]1CCCO | -2.8 | -6.1 | 2.6 | -1.6 | -68.6 | i | 4.4 | 5.4
CSCCC(NS(=O)(=O)c1cccc(C(F)(F)F)c1)C(=O)N(C)CCOc1ccc(Cl)cc1 (centres undefined) | nt | nt | 9.1 | nt | 29.7 | i | -3.6 | -15.7
COc1ccc(C2=NN(C(=O)CSc3nc4ccccc4s3)C(c3ccc(OC)cc3)C2)cc1 (centres undefined) | 0.6 | nt | 1.8 | -4.2 | 18.6 | i | -7.9 | -5.1
Cc1ccc(C(=O)c2ccccc2C(=O)O)c(O)c1 | -2.6 | -7.8 | -15.8 | 7.9 | nt | nt | 6.1 | 2.4
CCN(Cc1ccccc1)C(=O)CCc1nc(CN2CCN(C(=O)c3ccc([N+](=O)[O-])cc3)CC2)no1 | 10.2 | 6.6 | 6.3 | 1.1 | -0.7 | i | 0.2 | -0.3
Cc1cc(C)c(N)c(C(=O)O)c1 | 2.8 | -6.2 | 7.8 | 7.7 | -9.1 | i | -1.5 | -0.7
Cc1cc(C)c(C#N)c(SCC(=O)OC2CCCCC2)n1 | -3.8 | -10.2 | -10.4 | -7.0 | -47.5 | nt | 9.4 | 5.2
COc1cc(OC)c(OC)cc1/C=N/n1c(COc2ccccc2)n[nH]c1=S | -7.4 | -24.1 | 15.8 | -1.9 | -10.0 | i | 4.5 | 3.0
COc1cc(C2C(C(=O)c3cccs3)=C(O)C(=O)N2Cc2ccco2)cc(OC)c1OC (centres undefined) | -6.5 | nt | -3.8 | 9.9 | nt | i | 2.5 | 4.4
CCOc1ccccc1NC(=O)CCN1CCN(S(=O)(=O)c2ccc(Br)cc2)CC1 | -2.5 | 11.7 | 3.2 | 0.5 | nt | i | nt | nt
O=C(O)c1nn(Cc2nc3ccccc3o2)c(=O)c2ccccc12 | -6.1 | -14.0 | -6.0 | -8.8 | 1.1 | i | -1.8 | 1.2
CCOC(=O)C1=CN(Cc2cccc(F)c2)S(=O)(=O)N(C)C1c1cccc(OC)c1 (centres undefined) | nt | -10.4 | nt | nt | 20.9 | nt | 0.3 | -0.8

Only part of the results is shown; count on the stated rates, not on these rows.
